# Screening results from PubChem BioAssay.
# CSC inhib – cancer stem cell viability inhibitors, primary screen, luminescence; cancer stem cell-like cells viability; inhibition, % at 7.5 µM; actives 1.1% (n = 300,000); AID 2717, 2010;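 active means mean at 75% or more and at least half the replicates too; tested in HMLE shEcad cells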;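 further: 0% = median of negative and 100% = median of positive control wells; the first replicate is given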
# PABP polyA inh – PABP poly(A) RNA binding inhibitors, primary screen, biochemical, fluorescence polarization, uHTS. Polyadenylate-binding protein 1 (Homo sapiens), P11940. actives 1% (n = 290,000). inhibition, % at 35 µM;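 active means 50% or more with normal probe brightness, or confirmed in later tests; about a fifth of its hits are not listed in these tables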;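 further: calls also rest on retests at 20 µM and on dose response follow-up; controls were probe without protein and protein plus probe with vehicle; some compounds called inactive have numbers as strong as hits; many hits fall short of the cut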
# Target sequence (P11940 whole entry, looked up): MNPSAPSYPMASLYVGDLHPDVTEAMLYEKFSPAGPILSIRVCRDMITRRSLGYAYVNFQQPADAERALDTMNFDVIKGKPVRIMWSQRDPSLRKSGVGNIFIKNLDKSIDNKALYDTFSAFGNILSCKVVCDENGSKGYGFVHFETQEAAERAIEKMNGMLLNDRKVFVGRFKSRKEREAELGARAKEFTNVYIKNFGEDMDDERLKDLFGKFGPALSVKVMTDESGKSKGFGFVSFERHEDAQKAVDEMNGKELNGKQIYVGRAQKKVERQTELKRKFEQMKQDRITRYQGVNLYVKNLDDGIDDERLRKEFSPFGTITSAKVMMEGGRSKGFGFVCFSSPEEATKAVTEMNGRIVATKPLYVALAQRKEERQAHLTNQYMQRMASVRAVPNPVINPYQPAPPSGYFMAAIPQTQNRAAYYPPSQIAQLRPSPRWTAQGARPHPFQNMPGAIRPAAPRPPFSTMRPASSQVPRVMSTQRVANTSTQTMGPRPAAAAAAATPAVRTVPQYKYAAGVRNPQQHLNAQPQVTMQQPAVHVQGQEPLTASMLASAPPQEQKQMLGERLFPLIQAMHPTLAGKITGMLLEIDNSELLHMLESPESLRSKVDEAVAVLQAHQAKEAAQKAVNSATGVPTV
# MT1-MMP act inh – blockers of MT1-MMP proenzyme processing, primary screen, HT1080 RFP-PRO-GFP cells, GFP/RFP fluorescence | Matrix metalloproteinase-14 (Homo sapiens), P50281 | GFP/RFP ratio fluorescence, overnight; percent of plate control window, DMSO zero | GFP/RFP ratio change, % at 20 µM | actives 0.061% (n = 360,000) | AID 651647, 2012;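 active means GFP/RFP ratio change of at least 30% with cell ATP level not reduced by more than half and red fluorescence within 50% of control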; further: strong numbers were not always called active
#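 Test system: HT1080 RFP-PRO-GFP cells; Benchmarks: DMSO and RFP-L50D-GFP cell wells; Timing: cells overnight before dosing, compound overnight, 37 °C, 5% CO2; Compound: one 20 µM compound dose with 1% DMSO; Read-out: GFP/RFP fluorescence ratio.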
# Rce1 inhib – yeast Rce1p protease inhibitors, primary screen, biochemical, fluorescence, cell-free homogeneous; calls only; yeast membranes, quenched prenylated peptide cleavage fluorescence; actives 0.27% (n = 290,000); AID 2563, 2010;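 active means fall in fluorescence gain of 50% or more versus controls, with final raw signal at or below 3038400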;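 further: plate controls were neutral control wells for no effect and wells lacking membranes for full effect; tested at 10 µM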
# Yeast UUG start – modulators of yeast start codon fidelity, primary screen, whole organism, S. cerevisiae, single point, plate reader; S. cerevisiae UUG-firefly luciferase reporter, luminescence/redox ratio; activity score, % at 18.7 µM; actives 0.13% (n = 350,000); AID 602363, 2012;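 active means replicate mean at a twofold rise or more, about +100% in these data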;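 further: firefly luciferase made from a UUG start codon reports start codon fidelity; reporter light over untreated wells divided by growth signal over untreated wells; some hits fall short of that in this replicate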
# eIF4H inh – human eIF4H binding inhibitors, primary screen, translation initiation inhibitor project, biochemical, uHTS, fluorescence polarization; Eukaryotic translation initiation factor 4H (Homo sapiens), Q15056; actives 0.94% (n = 290,000); eIF4H fluorescence polarization binding assay; inhibition, % at 35 µM;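 active means 50% or more with normal probe brightness, or confirmed in later tests; about a fifth of its hits are not listed in these tables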;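 further: calls also rest on retests at 20 µM and on dose response follow-up; 0% = protein and probe with vehicle and 100% = probe without protein; strong numbers were not always called active; many hits fall short of the cut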
# Env fusion inh – inhibitors of HIV-1 Env-driven cell-cell fusion, primary screen, HeLa-JRFL effector, CEM21 target cells, luciferase | actives 1.1% (n = 360,000) | inhibition, % at 12.3 µM;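 active means mean replicate inhibition score of at least 50 and every replicate individually at or above 50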;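 further: 0% = plate neutral controls and 100% = maraviroc near 300 nM; one replicate is shown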
# eIF4H inh retest – recorded beside eIF4H inh, whose call it bears; inhibition, %; compound at 20 µM; confirmation average;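 mean of two retest wells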
# PABP polyA inh retest – further read-out of PABP polyA inh, marked with its call; inhibition, %; compound at 20 µM; confirmation repeats;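 mean of two retest wells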
# MT1-MMP act inh RFP – also measured in MT1-MMP act inh; calls as there; RFP signal change, %; measured here: RFP expression control read;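 0 = vehicle wells; hits needed this value within 50% of zero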
# The depositor's hits bear a star; i = inactive; . = no result given. Rows were taken by chance, and some 2.9% of all compounds hit somewhere here.
SMILES,CSC inhib,PABP polyA inh,MT1-MMP act inh,MT1-MMP act inh RFP,Rce1 inhib,Yeast UUG start,eIF4H inh,Env fusion inh,others
O=C(O)C1CCCN1C(=O)OCc1ccccc1 (stereo not given),-14,-1,-1,6,i,1,0,.,
Cc1ccc(-c2nnc(SCC(=O)Nc3nccs3)n2N)cc1,-12,-4,2,0,i,-36,-5,-12,
COc1cc(NC(=O)CN(C)S(=O)(=O)c2ccc3c(c2)CCC(=O)N3)cc(OC)c1,-3,-3,2,-2,i,-14,-8,6,
COc1ccc(N2CCN(C(=O)c3cc4c(-c5ccc(Cl)cc5)nn(C)c4s3)CC2)cc1,0,1,-9,-7,i,-16,-4,8,
COc1cccc(C2C=C(Nc3ccccc3)C(=O)N2c2ccccc2)c1 (stereo not given),-4,8,-2,3,i,.,-5,-4,
O=C(CC1(O)C(=O)N(Cc2cccc3ccccc23)c2ccccc21)c1cccnc1 (stereo not given),7,-4,2,5,i,-21,-7,-74,
Cc1ccc(-c2nc3cc(N)ccc3o2)cc1,8,0,6,3,i,-50,-10,-328,
O=C(Nc1ccccc1)N1CC=C(c2ccc(F)cc2)CC1,-4,-6,-1,0,i,-21,14,.,
CCCCOc1ccc(-c2nnn(C(C)C(=O)OCC)n2)cc1 (stereo not given),-10,2,-1,2,i,.,1,-39,
CCOC(=O)Cc1csc(NC(=O)c2ccc(Br)o2)n1,7,5,2,0,i,.,8,13,
O=C(CN1C(=O)NC2(CCCCCC2)C1=O)N1CCN(S(=O)(=O)c2ccccc2)CC1,1,-6,-2,0,i,.,3,-2,
CCCCCN(C(=O)CCC(=O)OCC(=O)c1c(C)cc(C)cc1C)c1c(N)n(CCCC)c(=O)[nH]c1=O,-10,.,-14,-15,i,.,.,-3,
CC(=O)Nc1cc(-c2nn(C)c(=O)c3ccccc23)ccc1N1CCCCC1,7,-4,5,3,i,-9,2,6,
COc1ccc(CN2CCN(Cc3csc(C(C)=O)c3)CC2CCO)c(C)c1C (stereo not given),32,3,3,2,i,.,0,7,
CCN(CC)c1nc(Oc2ccc(C(=O)OC)cc2)nc(N2CCOCC2)n1,9,-5,-6,-8,i,.,-7,13,
Cc1onc(-c2ccccc2Cl)c1C(=O)N1CCN(c2ccccc2)CC1,4,2,5,1,i,-6,5,19,
Cc1ccc(OCCCN2CCOCC2)c([N+](=O)[O-])c1,1,-9,5,5,i,-20,14,-66,
CCOC(=O)C1=C(C)NC(C)=C(C(=O)OCC)C1c1cc(N)ccc1OC(F)F,1,-11,12,2,i,5,-1,9,
O=C(NCCCN1CCCCC1)c1ccc2c(=O)n(CCc3ccccc3)c(=O)[nH]c2c1,-12,-19,-5,1,i,-11,-6,-128,
O=[N+]([O-])c1cccc2c1ccc1ncccc12,-4,1,-20,-12,i,-21,5,17,
Cc1ccc(S(=O)(=O)Nc2cccc(-c3ccc4nncn4n3)c2)cc1,3,.,5,-7,i,-16,.,-4,
COc1cc(COCC(O)CN2CCOCC2)cc(OC)c1OC (stereo not given),25,5,7,6,i,-12,-4,.,
CC(C)C(=O)Nc1ccc(N2CCCC2)c(Cl)c1,-11,-2,1,-1,i,.,-10,-21,
CC1(C)Cc2c(cnn2-c2ccccc2)C(NC(=O)CCc2ccc(=O)[nH]n2)C1 (stereo not given),-4,4,3,4,i,-1,-5,1,
Cc1ccc2oc(C(=O)N3CCN(Cc4nccn4C)CC3)c(C)c2c1,18,-2,-1,2,i,-25,0,5,
COc1ccc(CNC(=O)C2CCC(CNS(=O)(=O)c3ccccc3)CC2)cc1 (stereo not given),-10,-7,4,1,i,-14,3,-9,
Cc1ccccc1N(CC(=O)NCCSCc1ccccc1)S(C)(=O)=O,-12,3,0,-5,i,2,7,-34,
CCNC(=O)CN(c1ccccc1OC)S(=O)(=O)c1cccs1,-14,4,1,5,i,-16,0,-8,
O=C(CC(NS(=O)(=O)c1ccc(Cl)cc1)c1ccco1)NCc1ccco1 (stereo not given),16,-2,-1,-3,i,-12,-6,.,
CCCCC/C=N\NC(=O)Cc1ccc([N+](=O)[O-])cc1,-18,21,4,3,i,.,-5,-1,

# Continued, starting with the last 3 of the part before.
SMILES,CSC inhib,PABP polyA inh,MT1-MMP act inh,MT1-MMP act inh RFP,Rce1 inhib,Yeast UUG start,eIF4H inh,Env fusion inh,others
CCNC(=O)CN(c1ccccc1OC)S(=O)(=O)c1cccs1,-14,4,1,5,i,-16,0,-8,
O=C(CC(NS(=O)(=O)c1ccc(Cl)cc1)c1ccco1)NCc1ccco1 (stereo not given),16,-2,-1,-3,i,-12,-6,.,
CCCCC/C=N\NC(=O)Cc1ccc([N+](=O)[O-])cc1,-18,21,4,3,i,.,-5,-1,
CCc1cc(=O)oc2cc(OCc3nn[nH]n3)ccc12,-12,3,1,6,i,-27,-3,.,
COCCNC(=O)C1(C)CCCN(C(=O)c2cc(C)oc2C)C1 (stereo not given),.,.,-2,4,.,-10,.,13,
N[C@H](CSCc1ccccc1)C(=O)Nc1ccc([N+](=O)[O-])cc1,.,-3,0,-1,i,-15,0,21,
CCOC(=O)c1c(NC(=S)NCC2CCCO2)sc(C)c1C (stereo not given),-10,0,8,3,i,.,2,17,
Cn1c(=O)c2c(SCC(=O)N3CCCC3)nc(CC(C)(C)C)nc2n(C)c1=O,1,5,-4,-1,i,-7,-4,-7,
COc1ccc(N2C(=NC(=O)C3CCCCC3)SC3CS(=O)(=O)CC32)cc1 (stereo not given),-2,1,-1,-2,i,-10,-5,1,
CCOC(=O)c1ccc(N/C=C\C(=O)c2cccc(OC)c2)cc1,1,1,9,3,i,-10,2,-53,
CSCc1ccc(C(=O)NC2CC(C)(C)Cc3c2cnn3-c2ccc(F)cc2)o1 (stereo not given),-7,8,-2,-4,i,-11,-13,4,
O=[N+]([O-])/C(C(Cl)=C(Cl)Cl)=C(\Nc1ccc(F)cc1)n1cncn1,12,15,.,.,i,.,3,.,
O=Cc1ccc(-c2cc(Cl)ccc2Cl)[nH]1,-22,11,-9,-2,i,-17,2,-9,
Cc1cc(-n2cnnn2)cc(C)c1S(=O)(=O)NCCOc1ccccc1,.,8,1,1,i,-17,-10,4,
CC(NC(=O)COC(=O)/C=C/c1ccco1)c1ccccc1 (stereo not given),-11,-6,0,2,i,.,27,11,
COC(=O)c1ccc(NC(=O)CN2CCN(c3ccccn3)CC2)cc1,-10,6,0,2,i,.,-7,0,
CCOC(=O)c1c(NCCN(C)C)c2ccccc2[nH]c1=O,2,-10,-2,3,i,-22,4,-2,
COCCn1c(C)c(C(=O)O)sc1=S,-11,10,5,6,i,.,0,.,
Cc1ccc([N+](=O)[O-])c(NC2OC(CO)C(O)C2O)c1 (stereo not given),1,58,-1,7,i,.,17,15,eIF4H inh retest=24;PABP polyA inh retest=2
COC(=O)C1CCN(C(=O)Cn2nnc(-c3ccccc3)n2)CC1,-5,1,2,2,i,1,3,7,
O=C1CCCCC1Sc1ccc(Cl)cc1[N+](=O)[O-] (stereo not given),-15,.,1,7,i,.,.,-9,
O=C(CCCCCN1C(=O)c2cccc3cccc(c23)C1=O)NC1CCS(=O)(=O)C1 (stereo not given),5,-11,-4,-4,i,.,-5,-14,
COc1ccc(-c2ccc(N)[n+](CCCC(=O)O)n2)cc1,2,.,2,1,i,-8,.,7,
O=C(NNC(=O)c1cc2ccccc2o1)c1ccncc1,11,.,1,-1,.,-12,.,.,
Cc1ccc(NC(=S)NNc2ccc(C(=O)O)cc2[N+](=O)[O-])cc1C,-4,.,10,3,i,.,.,-12,
Cc1ccc(C(NC(N)=O)c2ccccc2)cc1 (stereo not given),-12,10,2,-2,i,-8,-5,-105,
Cc1cccc2c1N(C(=O)CN1C(=O)c3ccccc3C1=O)C(C)(C)c1ssc(=S)c1-2,-9,1,4,9,i,.,4,23,
COc1ccc2c(c1)c(=O)c(C(=O)c1ccc(Cl)cc1)cn2CC(=O)Nc1ccc(F)cc1,12,2,10,3,i,-15,-8,18,
c1ccc(-c2c[n+]3c(n2-c2ccccc2)SCC3)cc1,-7,1,4,-12,i,-9,0,0,
C[C@@H]1C[C@H](O)c2cc(Cl)ccc2N1,.,4,1,5,i,-15,-4,.,
CCOc1ccc(OCC)c(NC(=O)c2[nH]c(C)c(C(C)=O)c2C)c1,-9,-4,7,12,i,-5,-6,-489,
C=C(C)C1CC=C(C)/C(=N\NC(=S)Nc2ccc(C)cc2)C1 (stereo not given),-12,5,1,-1,i,10,0,-3,
Cn1c(=O)c2c(n3cnnc13)-c1ccccc1CC21CCCC1,.,10,2,-9,i,12,6,.,
CCc1nn(C(CC)C(=O)NCc2cccc(OC)c2)c(=O)c2cc3occc3n12 (stereo not given),4,-10,-3,0,i,4,8,-2,
COC(=O)c1ccccc1NC(=O)CN1CCC(C)CC1,-1,-3,-2,-1,i,-5,2,13,
CC(C)C(NC(=O)C1CCC(C(C)(C)C)CC1)C(=O)NCCCN1CCCCC1 (stereo not given),-4,-17,-2,2,i,.,-10,1,
Cc1cc(=O)n(CC(C)C)c(O)c1C#N,-4,68*,-2,6,.,-3,119*,.,eIF4H inh retest=98*;PABP polyA inh retest=71*

# Grouped by structure: those above with an aryl methoxy group (12)
SMILES,CSC inhib,PABP polyA inh,MT1-MMP act inh,MT1-MMP act inh RFP,Rce1 inhib,Yeast UUG start,eIF4H inh,Env fusion inh,others
COc1cc(NC(=O)CN(C)S(=O)(=O)c2ccc3c(c2)CCC(=O)N3)cc(OC)c1,-3,-3,2,-2,i,-14,-8,6,
COc1ccc(N2CCN(C(=O)c3cc4c(-c5ccc(Cl)cc5)nn(C)c4s3)CC2)cc1,0,1,-9,-7,i,-16,-4,8,
COc1cccc(C2C=C(Nc3ccccc3)C(=O)N2c2ccccc2)c1 (stereo not given),-4,8,-2,3,i,.,-5,-4,
COc1ccc(CN2CCN(Cc3csc(C(C)=O)c3)CC2CCO)c(C)c1C (stereo not given),32,3,3,2,i,.,0,7,
COc1cc(COCC(O)CN2CCOCC2)cc(OC)c1OC (stereo not given),25,5,7,6,i,-12,-4,.,
COc1ccc(CNC(=O)C2CCC(CNS(=O)(=O)c3ccccc3)CC2)cc1 (stereo not given),-10,-7,4,1,i,-14,3,-9,
CCNC(=O)CN(c1ccccc1OC)S(=O)(=O)c1cccs1,-14,4,1,5,i,-16,0,-8,
COc1ccc(N2C(=NC(=O)C3CCCCC3)SC3CS(=O)(=O)CC32)cc1 (stereo not given),-2,1,-1,-2,i,-10,-5,1,
CCOC(=O)c1ccc(N/C=C\C(=O)c2cccc(OC)c2)cc1,1,1,9,3,i,-10,2,-53,
COc1ccc(-c2ccc(N)[n+](CCCC(=O)O)n2)cc1,2,.,2,1,i,-8,.,7,
COc1ccc2c(c1)c(=O)c(C(=O)c1ccc(Cl)cc1)cn2CC(=O)Nc1ccc(F)cc1,12,2,10,3,i,-15,-8,18,
CCc1nn(C(CC)C(=O)NCc2cccc(OC)c2)c(=O)c2cc3occc3n12 (stereo not given),4,-10,-3,0,i,4,8,-2,
